D2 ag – agonists of human D2 dopamine receptor (beta-arrestin). P14416. DiscoveRx PathHunter D2 beta-arrestin, luminescence, 90 min; 100% = 57 uM dopamine signal. activation, % (test concentration not listed). 360,000 compounds, 0.084% hits. AID 624465; in the data active = activation above about 40%; inconclusive = about 15% to 40%; inactive = below about 15%; further: compound concentration not given in the record; the text of the record calls up to 30% inactive
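DiscoveRx PathHunter D2 beta-arrestin cells (2,100/well) attached overnight, then compound-stimulated 90 min at 37 C in HBSS/10 mM HEPES/0.1% Tween-20 buffer; beta-galactosidase complementation read by luminescence after 1 h at ambient temperature. Dopamine 57 uM final (EC100) as control.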
PINK1 expr mod – modulators of PINK1 expression | PINK1 immunofluorescence, high-content cytometry, 24 h | 410,000 compounds, 0.2% hits | Potency, µM (doses to about 76.6 µM), without a hit: at the highest dose activation (PINK1 increase), actives largely listed as activators; active = well fitted activation curve with a large enough effect; inconclusive = small, poorly fitted or top-dose-only effect; inactive = flat fitted curve, though single readings scatter; cell line not stated here;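 further: potency means the concentration at half of the fitted maximal effect; % of control where 0% means no effect; nearly all actives have a fitted effect of over 65% in size; a mitochondrial uncoupler was the plate control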
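Compound titrations (5 concentrations, 24 h) on a stable cell line; DMSO and CCCP controls. Endpoint: fixed-cell PINK1 immunofluorescence with mitochondrial, cell and nuclear markers, scanned by microplate cytometer.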
Six1-Eya2 blk – Six1/Eya2 interaction inhibition; Q15475+O00167; AlphaScreen GST-Six1/His-Eya2 binding, biochemical; hits give low values; control for the full effect not named in the record; 360,000 compounds, 0.56% hits; activity change, % (concentration not given with the values); in the data active = activity change below about -65%; inconclusive = about -30% to -65%; inactive = above about -30%; further: on the % scale 0 is the no-effect control and ±100 the full control effect
Target sequence (O00167 whole entry, looked up): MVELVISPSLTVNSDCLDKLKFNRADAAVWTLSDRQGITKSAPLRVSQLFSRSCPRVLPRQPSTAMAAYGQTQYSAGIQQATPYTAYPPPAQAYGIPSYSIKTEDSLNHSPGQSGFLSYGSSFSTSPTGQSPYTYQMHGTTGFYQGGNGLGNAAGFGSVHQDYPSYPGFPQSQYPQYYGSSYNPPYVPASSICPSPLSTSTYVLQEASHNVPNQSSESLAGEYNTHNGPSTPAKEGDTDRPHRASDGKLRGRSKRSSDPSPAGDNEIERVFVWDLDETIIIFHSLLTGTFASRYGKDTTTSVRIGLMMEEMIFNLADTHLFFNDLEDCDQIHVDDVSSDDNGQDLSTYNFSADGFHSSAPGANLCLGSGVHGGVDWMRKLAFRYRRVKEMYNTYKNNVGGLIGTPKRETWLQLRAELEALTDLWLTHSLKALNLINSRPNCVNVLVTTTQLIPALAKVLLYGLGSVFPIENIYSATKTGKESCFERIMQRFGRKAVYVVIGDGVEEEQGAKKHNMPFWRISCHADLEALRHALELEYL
Target sequence (Q15475 whole entry, looked up): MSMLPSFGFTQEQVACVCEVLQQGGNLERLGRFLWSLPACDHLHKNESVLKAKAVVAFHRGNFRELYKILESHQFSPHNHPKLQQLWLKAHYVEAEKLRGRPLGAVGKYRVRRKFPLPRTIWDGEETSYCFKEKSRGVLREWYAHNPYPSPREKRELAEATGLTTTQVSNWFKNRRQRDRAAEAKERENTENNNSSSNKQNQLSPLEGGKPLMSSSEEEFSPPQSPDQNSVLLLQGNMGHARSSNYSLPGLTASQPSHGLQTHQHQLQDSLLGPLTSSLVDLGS
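AlphaScreen with GST-Six1 and His-Eya2 (5X mix: 250 nM and 500 nM), glutathione donor and nickel acceptor beads; buffer 50 mM Tris pH 8.0, 300 mM NaCl, 1 mM TCEP; 1 h at 37 C in the dark.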
TRPML1 ag – activates the human TRPML1 channel | TRPML1-expressing cells, Ca2+ dye fluorescence, FDSS; host cell line not named in the record; reference of the full effect not given here | 410,000 compounds, 0.12% hits | Q9GZU1 | activation, % (concentration not given with the values); in the data active = activation above about 50%; inconclusive = about 30% to 50%; inactive = below about 30%; further: 0% is about no effect; the text of the record puts the active cut at 80%
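Cells: TRPML1-DL, 1X Tet inducer, ~16 h at 37 degrees C/5% CO2. Dye: ABD Ca8 no-wash + quencher, 45-90 min RT. Read: 10 s baseline, compound add, 110 s agonist phase; 54-4 EC80 (4uM final), 110 s antagonist phase.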
TRPML1 blocker – inhibitors of human TRPML1 channel; TRPML1-inducible cells, Ca2+ dye fluorescence, FDSS; hits give low values; inhibition of EC80 agonist-evoked calcium signal; activity change, negative = inhibition, % (no concentration beside the values); 390,000 compounds, 0.02% hits; AID 624415; in the data active means activity change below about -50%; inconclusive means about -30% to -50%; inactive means above about -30%;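 further: stimulus is agonist 54-4 at its EC80 concentration; on the % scale 0 is the no-effect control and ±100 the full control effect; compound concentration not given in the record; the text of the record puts the active cut at -80%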
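Calcium fluorescence in TRPML1-DL cells induced overnight with Tet: a 110 s read after compound pin addition, then a 110 s antagonist read after challenge with 54-4 at 4 uM final (EC80).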
CtBP-E1A inh – inhibitors of CtBP/E1A interaction | 340,000 compounds, 0.49% hits | activity change, % (no concentration beside the values) | AlphaScreen GST-E1A/His-CtBP binding, 1536-well; hits give low values; control for the full effect not named in the record; in the data active means activity change below about -65%; inconclusive means about -30% to -65%; inactive means above about -30%; further: on the % scale 0 is the no-effect control and ±100 the full control effect
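In 5 uL wells, 23 nL compound meets equimolar GST-E1A and His-CtBP (5X stock 125 nM each) for 2 h, 37 °C. Beads (5X, 50 ug/mL) then 1 h, 37 °C, dark.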
* marks the source's active call; other numbers are inactive results; ? = inconclusive; · = not tested or not shown; & = joins results of further samples; [ ] = dose if it differs, or a comment.

SMILES | D2 ag | PINK1 expr mod | Six1-Eya2 blk | TRPML1 ag | TRPML1 blocker | CtBP-E1A inh
Cc1nc(C(F)(F)F)c(C(=O)N/N=C(\N)c2cccnc2)s1 | 3.5 | -1.0% | 4.5 | -0.5 | -8.7 | -3.8
CN(CC(=O)Nc1ccc(F)cc1)C(=O)COC(=O)C1CCN(c2ccc(C(F)(F)F)cn2)CC1 | -0.1 | -0.9% | -3.1 | -0.8 | 1.3 | 6.2
Cc1ccn2c(Nc3c(C)cccc3C)c(-c3ccc(Cl)s3)nc2c1 | · | 7.3% | · | 0.5 | 0.5 | ·
CCOc1ccc(C(=O)NCC(=O)NCC(c2ccc(OC)cc2)N2CCOCC2)cc1OCC (stereo not given) | -5.0 | -1.3% | 0.9 | 0.1 | -20.0 | -0.3
COC(=O)C1CC(c2ccc(Cl)cc2)=NO1 (stereo not given) | 10.9 | 1.5% | -2.1 | -0.7 | 1.4 | 3.5
COc1ccc(C(=O)Nc2ccnn2C2CCN(CCC(C)c3ccc(C)o3)CC2)cc1 (stereo not given) | -2.3 | -1.8% | -14.8 | 0.1 | -7.1 | -3.0
O=C(COc1ccccc1[N+](=O)[O-])Nc1cccc(C(=O)Nc2ccccc2C(=O)O)c1 | 3.8 | 3.2% | ? | 2.4 | 1.4 | ?
Cc1c(NC(=O)COC(=O)/C=C/c2ccccc2Br)c(=O)n(-c2ccccc2)n1C | 7.6 | 2.1% | -1.7 | 1.2 | -15.2 | 0.4
COc1ccc(C2N(C(=O)c3ccccc3)CCN2C(=O)c2ccccc2)cc1 | -4.4 | -1.2% | -1.2 | 0.3 | -4.2 | 2.6
CN1CCN(C(=S)c2ccc(N(C)C)cc2)CC1 | -0.8 | 0.7%[38.3 µM] | -3.5 | 0.7 | -9.6 | -3.8
C1=CC2=NC34CCCCC3CC3=C(CCCC3)N4C2=CC1=NC1CCCCC1 (stereo not given) | -1.9 | -1.5% | 8.5 | 1.9 | 30.4 | -0.1
O=C(COc1ccc(Cl)cc1Cl)N1CCCC1 | 0.6 | -1.0%[38.3 µM] | -0.2 | 0.8 | 26.9 | 1.5
CSCC(C)N1CCC(n2nccc2NC(=O)CCOc2ccccc2)CC1 (stereo not given) | -2.8 | -0.3% | -2.4 | -0.5 | -3.6 | -6.0
O=C1c2ccccc2C(=O)N1OCc1c(F)cccc1Cl | -2.0 | -2.1% | 38.1 | 0.0 | -19.7 | 0.0
Cc1cccc2cc(C#N)c(N3CCC(O)CC3)nc12 | 2.3 | 1.2% | 13.4 | 6.5 | 7.3 | -3.6
CSc1ccccc1NC(=O)CO/N=C(\C)c1cc2ccccc2o1 | -0.3 | 0.6% | 15.6 | 7.1 | 63.1 | 2.9
COc1ccc(NC(=O)Nc2cccc3ccccc23)c(OC)c1 | -0.9 | 8.4% | 0.3 | -0.1 | 16.8 | 4.5
O=C(N/C=C/c1ccco1)NCc1ccccc1 | -1.4 | 0.2% | -24.4 | -0.7 | -17.7 | ?
O=C(CSc1nccn1Cc1ccc(Cl)cc1)NCc1ccccc1 | · | 0.4% | · | -1.2 | -10.2 | ·
O=C(CSc1nnc2ccc3ccccc3n12)N1CCOCC1 | 2.9 | 0.7% | -0.9 | 0.7 | 5.1 | 3.9
O=C(NCC1CCCO1)c1cccc(S(=O)(=O)N2CCOCC2)c1 (stereo not given) | -1.8 | 0.6% | 2.5 | 0.0 | 4.4 | 5.9
Cc1ccccc1OCCC(=O)Nc1cc(S(=O)(=O)N2CCOCC2)ccc1OC(C)C | -3.2 | 0.1% | -4.4 | -0.3 | 17.1 | 1.7
CCOC(=O)c1ccc(NC(=S)N2CCN(c3ccc(N4CCOCC4)nn3)CC2)cc1 | -0.5 | -1.2% | -6.8 | -0.7 | 2.2 | 6.8
O=C(NCc1cccs1)c1cc(-c2cccs2)on1 | 5.0 | 1.0%[38.3 µM] | 10.8 | -0.5 | 2.9 | 11.9

Entries of single compounds, quoted from the list. Order of screens: D2 ag	PINK1 expr mod	Six1-Eya2 blk	TRPML1 ag	TRPML1 blocker	CtBP-E1A inh
Listed for Cc1cccc2cc(C#N)c(N3CCC(O)CC3)nc12 → 2.3	1.2%	13.4	6.5	7.3	-3.6
Listed for O=C(NCc1cccs1)c1cc(-c2cccs2)on1 → 5.0	1.0%[38.3 µM]	10.8	-0.5	2.9	11.9
Listed for O=C(CSc1nnc2ccc3ccccc3n12)N1CCOCC1 → 2.9	0.7%	-0.9	0.7	5.1	3.9
Listed for Cc1ccccc1OCCC(=O)Nc1cc(S(=O)(=O)N2CCOCC2)ccc1OC(C)C → -3.2	0.1%	-4.4	-0.3	17.1	1.7

New compounds follow.
SMILES | D2 ag | PINK1 expr mod | Six1-Eya2 blk | TRPML1 ag | TRPML1 blocker | CtBP-E1A inh
COc1cccc(OC)c1OCCCOc1ccc([N+](=O)[O-])cc1Cl | -0.7 | 3.1% | -11.1 | 0.2 | -17.4 | -3.8
Cc1ccc(C2=NN(CC(=O)NCc3cccs3)C(=O)CC2)cc1 | -2.8 | -0.8% | 4.3 | -0.4 | 0.9 | ·
Cc1cc(C)cc(NC(=S)N2CCCC2)c1 | 0.2 | -0.2% | 3.5 | -0.7 | -16.6 | -0.3
COc1ccccc1CCNC(=O)C1(C)CC1(Cl)Cl (stereo not given) | 4.3 | -2.5% | 0.0 | 4.8 | 13.1 | 6.2
Cc1ccc2c(c1)CC(C)N2S(=O)(=O)c1nnc(NC(=O)CC(C)C)s1 (stereo not given) | 1.6 | 25.9%&3.3% | -0.5 | -0.5&0.7 | 0.1&12.7 | 0.7
CCOC(=O)N1CCN(C(=O)/C(=C/c2ccc(N(C)C)cc2)NC(=O)c2ccccc2)CC1 | -2.8 | 0.2% | -12.5 | -0.3 | -6.0 | -0.7
CC(C)(C)C(=O)Nc1ccc(C(=O)COC(=O)C2CC2)cc1 | 2.8 | 2.7% | -0.8 | 0.6 | -1.6 | -17.1
CCOc1ccc(CCNC(=O)CSCC(=O)Nc2ccc(OC)cc2)cc1OCC | -0.8 | 1.3% | -5.5 | -0.4 | 5.5 | ·
COc1cccc(NC(=O)CCN2CCOCC2)c1 | -0.8 | -1.0% | -3.4 | -0.3 | -5.8 | 7.0
CNC(=O)c1c(NC(=O)CS(=O)(=O)c2ccccc2)sc(C)c1C | -1.2 | -1.5% | -5.0 | 0.6 | 14.4 | -6.7
COc1ccc(NC(=O)c2cccc(OC(=S)N3CCOCC3)c2)cc1 | -6.6 | -1.0% | 0.3 | -0.8 | -5.5 | ·
O=C(Nc1ccncc1)c1ccc(-c2ccccc2)cc1 | -1.6 | 2.0% | 5.5 | 0.4 | -2.5 | ·
CCN(CC1CCCN(CCc2cccc(F)c2)C1)C(=O)c1ccoc1C (stereo not given) | -3.2 | 1.6% | -10.4 | -0.5 | 0.7 | 25.3
NS(=O)(=O)c1cccc(NC(=O)CSc2nc3ccccc3[nH]2)c1 | 2.1 | -1.0% | -9.1 | 1.3 | -20.2 | -11.7
CCC(C)NCCCOc1ccc([N+](=O)[O-])cc1 (stereo not given) | -0.7 | 3.2% | 3.3 | 0.8 | -8.5 | 7.2
CCC(=O)N1CCc2cc(Br)cc(S(=O)(=O)CCC(=O)N3CCN(c4cccc(C(F)(F)F)c4)CC3)c21 | · | -0.9% | · | -0.4 | -8.0 | ·
CC(C)C[C@@H](CN1CCC[C@@H]1CN1C(=O)C(=O)NC[C@@H]1Cc1ccccc1)N1C[C@H](Cc2ccc(O)cc2)N(CC2CCCCC2)C(=O)C1=O | 1.3 | 4.2% | -3.2 | -0.9 | -4.2 | -3.0
COc1ccc(CCNC(=O)c2ccc(NC(=O)CC3SC(N4CCCC4)=NC3=O)cc2)cc1OC (stereo not given) | -2.2 | -0.4% | 3.3 | 1.2 | 9.2 | -12.2
Cc1cccc(-n2ccc(=O)c(C(=O)Nc3ccc(S(=O)(=O)Nc4onc(C)c4C)cc3)n2)c1 | -0.9 | 5.2% | -5.0 | -0.5 | -1.0 | 0.1
CCOC(=O)c1ccccc1NC(=O)CSc1c(C)cnc2c1c(=O)n(C)c(=O)n2C | · | 0.6% | · | -0.4 | -4.6 | ·
CCN(Cc1cnn(C)c1)C(=O)C1CCC(=O)N(CCc2ccc(OC)cc2)C1 (stereo not given) | 6.2 | 0.1% | 3.6 | 0.2 | -17.8 | 11.3
CC(=O)Oc1ccc(C(=O)Nc2cccc3c2CCCC3)cc1 | -3.5 | 0.0% | 6.4 | 1.3 | 11.6 | -4.8
CC(C(=O)N1CCc2ccccc21)N(C)CC(=O)Nc1ccccc1Cl (stereo not given) | -2.9 | -0.9% | 6.7 | -0.1 | -16.3 | -2.7
Cc1nn(S(=O)(=O)N(C)C)c(C)c1CN1C(=O)c2ccccc2C1=O | 0.5 | -0.2%[38.3 µM] | 0.3 | 0.1 | 1.5 | 2.2
COc1ccc(NS(=O)(=O)/C=C/c2ccccc2)cc1 | -2.6 | 0.6% | 2.3 | -0.7 | -1.8 | 4.8
CC(=O)N1CCN(C(=O)CCc2nnc(CCCCc3ccccc3)o2)CC1 | -1.0 | -0.7% | 8.3 | 0.7 | 7.3 | 0.0
CC(C)OCCCN(C)C1CCN(S(=O)(=O)c2csc(C(N)=O)c2)CC1 | -1.0 | -0.1%&-0.4% | -2.5 | -0.1&-0.6 | -0.2&-2.1 | -2.1
Cc1nc2c(C)c(C)c(C)c(C)c2nc1C | -1.3 | -0.2% | 8.2 | 0.8 | 1.3 | 9.9
CN(C)c1cccc(CNC(=O)c2csc(COCCO)n2)c1 | -4.1 | 0.6% | -2.5 | -0.4 | 3.1 | -1.2
CCCCNc1c(CCc2ccccc2)nc2nc(C)cc(C)n12 | · | 1.6% | -6.6 | -0.5 | · | 2.0
COc1cc(C(CCN2CCCCC2)c2c(OC)cc(OC)c3c(-c4ccccc4)cc(=O)oc23)cc(OC)c1OC (stereo not given) | -1.5 | 1.0% | ? | 0.2&0.4 | 1.1&1.0 | -26.0
COC(=O)c1c(NC(=O)CCC(=O)O)sc2c1CCCCC2 | -0.1 | -2.0% | 3.8 | 0.6 | 19.3 | 5.7
CC(=O)c1cc(-c2ccccc2)n(CC(=O)N2CCC(N3CCCCC3)CC2)c1C | -3.2 | -4.0% | 20.7 | -0.4 | -11.7 | 0.0
CC(=O)c1cc2c(cc1NC(=O)CSc1ncccn1)OCO2 | -1.5 | 1.6% | 0.1 | -0.4 | 16.9 | 3.2
COc1cccc(C2=CC(c3ccccc3F)n3ncc(C(=O)Nc4ccc(C)cc4)c3N2)c1 (stereo not given) | · | 2.9% | · | -0.6 | -22.9 | ·
COc1cc(/C=N/NC(=O)CCc2n[nH]c(=O)[nH]c2=O)ccc1O | -10.0 | -2.1% | -1.6 | 0.2 | 24.9 | -2.4
COCCNC(=O)C1CC(=O)N(CCc2ccccc2)C1 (stereo not given) | -4.1 | -1.5% | -2.9 | 3.4 | -10.9 | -2.8
O=C1CC(C(=O)Nc2ccc(O)c(C(=O)O)c2)C(c2ccccc2)O1 (stereo not given) | -0.3 | -0.9%[38.3 µM] | -3.6 | 4.3 | -6.6 | -0.4
